Source: PubChem BioAssay (several laboratories)
RanGTP-Imp inh = inhibitors of RanGTP-importin-beta interaction, primary screen, biochemical, FRET, CFP-Ran, YFP-importin-beta, homogeneous; 300,000 compounds, 1.1% hits; AID 2216; inhibition, % (test concentration not listed); cell-free CFP-Ran/YFP-importin-beta FRET ratio;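 active means most replicates above 15%; inconclusive means exactly half above 15%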;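 further: 0% = DMSO wells and 100% = Ran loaded with GDP instead of GTP; wells of about 40 µL received 100 nL stock; the first replicate is given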
AF4-AF9 inh = blocks AF4 peptide binding to human AF9. P42568. AlphaScreen, biotin-AF4 peptide binding to FLAG-AF9. inhibition, % at 10 µM. 350,000 compounds, 0.47% hits. AID 651704;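 active means every replicate reaching a set inhibition limit, whatever the replicate mean, cut at about 25% in these data; inconclusive means mean inhibition reaches that limit but some replicates miss it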;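 further: 0% = plate neutral control median and 100% = total signal loss; the record names both 10 and 1 µM as test concentration; the first replicate is given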
Target sequence (P42568 whole entry, looked up): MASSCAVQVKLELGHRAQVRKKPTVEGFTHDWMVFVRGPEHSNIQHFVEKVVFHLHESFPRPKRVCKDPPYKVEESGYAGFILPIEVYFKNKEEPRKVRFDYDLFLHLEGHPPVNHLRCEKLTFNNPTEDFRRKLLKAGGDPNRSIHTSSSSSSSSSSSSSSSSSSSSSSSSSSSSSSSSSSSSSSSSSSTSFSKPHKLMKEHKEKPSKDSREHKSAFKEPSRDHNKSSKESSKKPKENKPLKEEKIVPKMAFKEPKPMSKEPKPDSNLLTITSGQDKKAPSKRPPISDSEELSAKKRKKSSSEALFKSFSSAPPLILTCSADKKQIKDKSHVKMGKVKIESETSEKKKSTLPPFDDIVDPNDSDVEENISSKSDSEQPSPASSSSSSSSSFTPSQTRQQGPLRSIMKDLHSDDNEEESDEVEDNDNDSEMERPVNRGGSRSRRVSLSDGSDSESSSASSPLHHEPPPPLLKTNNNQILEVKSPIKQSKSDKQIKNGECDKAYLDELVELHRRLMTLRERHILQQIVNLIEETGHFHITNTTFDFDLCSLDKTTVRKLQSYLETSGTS
HNF4A DNA FP = change in binding of human HNF4 alpha to DNA | P41235 | HNF4a-FITC DNA binding, fluorescence polarization, 1 h | activity change, % at 10 µM | 360,000 compounds, 0.3% hits | AID 1224865; in the data active means activity change above about 30%, passing the limit was not always enough;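 further: controls were the assay level and a saturating level of protein; the project sought stronger binding though the title names inhibitors; some compounds called inactive have numbers as strong as hits; positive values seem to mean higher polarization but the record does not say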
Vif TR-FRET = inhibitors of Vif binding to APOBEC3G peptide, primary screen, biochemical, TR-FRET, GST-Vif 1-94, biotin-A3G peptide, dose response retest (AID 1117319); TR-FRET GST-Vif / biotin-A3G peptide binding; higher % means a stronger effect; test concentration not given here; strong numbers were not always called active; inhibition, %, or IC50 in µM where a hit was titrated; 260,000 compounds, 0.57% hits;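 active means above the screen mean plus three standard deviations and confirmed in dose response; inconclusive means results disagree or hit not tested in dose response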;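 further: Vif residues 1-94 fused to GST binding biotinylated APOBEC3G peptide 110-148; 0% = full assay without inhibitor and 100% = GST in place of GST-Vif; retest series ran down from 100 µM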
FGF22 binding = binders of recombinant human FGF22 by thermal shift; Q9HCT0; SYPRO orange fluorescence; percent of sucrose octasulfate shift, DMSO zero; calls only at 9.99 µM; 340,000 compounds, 1.5% hits;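 active means melting point raised past a set limit in the mean and every replicate; inconclusive means no clear call; three in four hits are not shown here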
Target sequence (Q9HCT0 whole entry, looked up): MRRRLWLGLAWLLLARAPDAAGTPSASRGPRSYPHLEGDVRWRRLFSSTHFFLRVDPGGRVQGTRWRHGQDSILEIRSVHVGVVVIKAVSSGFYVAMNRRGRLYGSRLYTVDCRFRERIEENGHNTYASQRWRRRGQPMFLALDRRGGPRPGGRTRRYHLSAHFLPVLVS
UCH37 DUB inh = human UCH37 deubiquitinating enzyme inhibition. inhibition, % (concentration not given with the values). purified proteasome/UCH37, Ub-AMC cleavage fluorescence. 330,000 compounds, 0.33% hits. AID 588478;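 active means mean of two replicates above 20%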;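 further: 0% = compound-free wells with enzyme and 100% = wells lacking proteasome; stock transfer was 100 nL into about 20 µL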
Target sequence (Q9Y5K5 whole entry, looked up): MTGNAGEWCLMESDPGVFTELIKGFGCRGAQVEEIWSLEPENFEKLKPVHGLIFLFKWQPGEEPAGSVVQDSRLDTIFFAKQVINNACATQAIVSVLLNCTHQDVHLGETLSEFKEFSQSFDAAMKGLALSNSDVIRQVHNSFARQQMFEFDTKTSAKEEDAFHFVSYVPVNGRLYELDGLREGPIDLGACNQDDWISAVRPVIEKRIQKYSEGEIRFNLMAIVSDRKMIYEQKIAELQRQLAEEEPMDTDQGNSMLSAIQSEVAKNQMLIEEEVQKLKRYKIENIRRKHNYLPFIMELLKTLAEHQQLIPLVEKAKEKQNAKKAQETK
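Material: Human UCH37 enzyme supplied as purified proteasome complex | Schedule: 30 min preincubation with enzyme, 25 min cleavage at room temperature | Detection: AMC fluorescence 355/460 nm | Measure: % inhibition of Ub-AMC cleavage fluorescence | Controls: Wells without proteasome as full block, compound-free enzyme plus substrate as uninhibited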
Ecoli growth = inhibitors of Escherichia coli growth; 330,000 compounds, 0.21% hits; OD600 absorbance (test concentration not listed); OD600, 23 h; active compounds read low;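 active means OD600 absorbance below the run mean of sample wells minus 3.6 SD, in any replicate, cut at about 0.56 in these data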;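 further: stock transfer was 300 nL into about 60 µL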
* marks the source's active call; other numbers are inactive results; i = inactive; ? = inconclusive; . = not tested or not shown; + = active, no number; & = joins results of further samples.

| HNF4A DNA FP | Vif TR-FRET | FGF22 binding | Ecoli growth | AF4-AF9 inh | UCH37 DUB inh | RanGTP-Imp inh | canonical_smiles |
| --- | --- | --- | --- | --- | --- | --- | --- |
| 0.7 | 0% | . | 0.66 | . | 1.0 | 2.7 | CN(C(=O)CCN1C(=O)c2ccccc2C1=O)C1CCCCC1 |
| 1.1 | -7%&-8% | . | 0.65 | . | -5.5 | 0.5 | Cc1nc2c(C(=O)N3CCN(c4ccccn4)CC3)cnn2c(C)c1Cc1cccc(Cl)c1 |
| 1.5 | -1% | . | 0.68 | . | 1.0 | -5.5 | COc1cccc(C(=O)NCCCN2CCN(CCCNC(=O)c3cccc(OC)c3)CC2)c1 |
| 2.3 | . | i | 0.72 | -2.4 | 1.8 | ? | COc1cccc(CNC(=O)CN(C)S(=O)(=O)c2ccc3c(c2)CC(C)N3C(C)=O)c1 (stereo not given) |
| 1.4 | 0% | i | 0.66 | -0.2 | -192 | -1.9 | CCOc1ccc(NC(=O)c2sc3nc(N4CCOCC4)c4c(c3c2N)CCCC4)cc1 |
| 3.9 | -5% | i | 0.67 | . | 3.8 | -1.5 | O=c1cc(-c2ccccc2Cl)oc2c(NS(=O)(=O)c3ccccc3C(F)(F)F)ccc(O)c12 |
| -1.6 | -3% | i | 0.69 | -7.0 | 1.1 | -2.0 | CS(=O)(=O)c1ccc(Cl)c(NC(=O)c2cc(=O)[nH]c3ccc(S(=O)(=O)N4CCOCC4)cc23)c1 |
| -11 | . | i | 0.79 | 2.4 | -16 | 150* | CC(C)(C)C(=O)Nc1sc2c(c1C#N)CCN(Cc1ccccc1)C2 |
| -1.5 | . | . | 0.71 | . | 5.0 | -2.5 | COc1cc(/C=C(\C#N)C(=O)Nc2ccc3ccccc3c2)c([N+](=O)[O-])cc1OC |
| 2.2 | -6% | . | 0.72 | . | 0.8 | 3.2 | Cn1c(CN2CCCC(C(=O)c3ccc4c(c3)OCO4)C2)nc2ccccc21 (stereo not given) |
| 3.9 | -55% | i | 0.69 | -1.4 | 0.5 | -0.2 | Cc1ccc2nc(SC(C(=O)c3ccccc3)c3ccccc3)nc(C)c2c1 (stereo not given) |
| -0.3 | 11% | . | 0.73 | . | 4.4 | -3.3 | CCOc1cc(-c2c(C)c(C)nc(N)c2C#N)ccc1O |
| -1.5 | -9% | . | 0.69 | -25 | -0.7 | -1.5 | COc1ccc(COc2ccccc2C(=O)Nc2ccccn2)cc1[N+](=O)[O-] |
| 4.9 | -5% | i | 0.69 | -0.9 | 1.5 | 0.6 | Clc1ccc(-c2nnc(-c3ccccc3)o2)cn1 |
| 0.1 | -13% | i | 0.69 | -0.2 | 0.8 | -2.6 | Cc1ccc(NC(=O)Nc2nnc(Cc3ccc(F)cc3)s2)cc1 |
| 2.3 | . | i | 0.66 | 7.5 | 2.9 | 5.4 | NC(N)=Nc1nc(C2COc3ccccc3O2)cs1 (stereo not given) |
| -0.8 | -16% | i | 0.65 | -3.6 | -1.6 | . | O=C(C1CCN(S(=O)(=O)c2ccccc2F)CC1)N1CCc2ccccc21 |
| 14 | 0% | i | 0.7 | -0.5 | 2.0 | -3.0 | Cc1cc(Cl)ccc1OC(C)C(=O)Nc1ccc(S(=O)(=O)N2CCOCC2)cc1 (stereo not given) |
| -1.7 | . | i | 0.68 | -0.4 | -1.1 | 0.6 | COCCN(Cc1ccccc1)C(=O)c1c(C)nn(-c2ccccc2)c1C |
| -2.4 | 2% | i | 0.7 | 0.5 | 6.1 | -3.7 | Cc1ccc(S(=O)(=O)Nc2c(C)nn(C)c2C)cc1 |
| 1.5 | . | i | . | -2.4 | 7.0 | . | COc1ccc(S(=O)(=O)Nc2ccc3c(c2)C(=O)N([C@H](C)CO)C[C@H](C)[C@@H](CN(C)C(=O)Nc2c(C)noc2C)O3)cc1 |
| -2.6 | -1% | . | . | 1.0 | . | . | CC1CCN(S(=O)(=O)c2cc(C(=O)N3CCN(c4ccccc4)CC3)ccc2Br)CC1 |
| 2.3 | -8% | i | 0.7 | 2.4 | 0.1 | -0.4 | NNC(=O)c1snnc1-c1ccccc1 |
| 1.8 | -2% | i | . | 1.7 | . | . | COc1ccc(C(=O)NC2=NCCS2)cc1S(=O)(=O)N1CCOCC1 |
| 2.5 | . | i | 0.69 | -2.5 | 1.0 | 5.7 | Cn1c(=O)c(C(=O)COc2ccc(C#N)cc2)c(N)n(Cc2ccccc2)c1=O |
| 1.1 | . | i | . | -2.0 | . | -1.1 | O=C(N/N=C/c1ccccn1)c1cc(-c2ccc(Br)s2)[nH]n1 |
| -2.2 | -3% | i | 0.66 | -2.0 | -0.7 | 4.8 | O=C(CCc1ccccc1)Nc1cc(C(=O)O)cc(C(=O)O)c1 |
| 20 | -26% | i | 0.67 | -0.6 | 2.3 | 1.3 | CC(C)(C)CC(=O)Nc1cc(S(=O)(=O)N2CCOCC2)ccc1N1CCCC1 |
| -2.9 | -6% | i | . | -11 | . | 2.3 | CCOc1ccc(Cl)cc1/C=N/NC(N)=O |
| 0.4 | -5% | i | . | 4.6 | . | 4.0 | Cc1ccc2nc(Cl)c(/C=N/Nc3ccc(C(=O)O)cc3)cc2c1 |
| 16 | . | i | 0.69 | -4.1 | -30 | -1.0 | CCCCn1c(-c2cccc(Br)c2)nc2cc3[nH]c(=O)c(C(C)C)nc3cc21 |
| 1.6 | 6% | i | 0.65 | 2.9 | 4.9 | 0.8 | COc1ccc(Cl)cc1NC(=O)NCC1CCN(Cc2ccccc2F)CC1 |
| -0.7 | . | . | 0.75 | . | 5.3 | 5.3 | Cc1ccc(OCC(=O)N2CC3(C)CC2CC(C)(C)C3)cc1 (stereo not given) |
| -0.4 | 3% | i | 0.68 | -3.7 | -0.4 | -2.0 | NC(=O)NOCc1ccccc1F |
| . | 6% | . | 0.68 | . | 6.9 | -2.9 | CCCOc1ccc(C2C(C(=O)c3ccc(C)o3)=C(O)C(=O)N2Cc2cccnc2)cc1 (stereo not given) |
| -1.9 | 3% | i | 0.7 | -1.7 | 3.7 | . | CCC(C)c1ccccc1NC(=O)C(C)Sc1n[nH]c(N)n1 (stereo not given) |
| 5.9 | -6% | i | 0.69 | -28 | 3.3 | 4.5 | O=S1(=O)CCC(NC2CCCC2)C1 (stereo not given) |
| 4.8 | . | i | . | -2.2 | . | . | CC1(C(=O)NS(=O)(=O)c2ccc(Cl)cc2)CCN1C(=O)Cc1ccccc1 (stereo not given) |
| -1.0 | 6% | i | 0.64 | 4.1 | -1.6 | -3.7 | FC(F)(F)c1nc(Sc2ncccc2C(F)(F)F)n[nH]1 |
| 0.3 | 8% | i | 0.75 | -1.0 | 4.1 | -1.3 | CNC(=O)c1sc(-c2ccccn2)nc1C |
| 0.1 | 8% | . | 0.74 | . | 3.7 | 1.7 | Cn1nc(CC(=O)Nc2ncc(Br)s2)c2ccccc2c1=O |
| -3.4 | -2% | i | 0.7 | -8.6 | 2.2 | . | CNC(=O)NC(=O)C(C)OC(=O)c1oc2ccccc2c1CSc1ccc(Cl)cc1 (stereo not given) |
| 2.5 | -6% | i | 0.64 | -0.8 | -1.2 | . | CCc1cccc(C)c1NC(=O)CN(C)C1=NS(=O)(=O)c2ccccc21 |
| 3.5 | -7% | i | 0.69 | 0.4 | 5.2 | 1.3 | CCOc1ccc(CCNC(=O)CCn2ccc3cc(S(=O)(=O)N4CCCC4)ccc32)cc1 |
| 1.3 | 2% | . | 0.78 | . | -15 | -1.8 | O=C(O)CCc1nc2ccccc2n(CCc2ccccc2)c1=O |
| 6.5 | . | i | . | -3.7 | . | . | Cc1ccc2c(C)nc(Nc3nc(CSc4nc5ccccc5s4)cc(=O)[nH]3)nc2c1 |
| 1.3 | 7% | i | 0.63 | 0.0 | 0.0 | -2.1 | COc1ccc(-n2c(C)nc3sc4c(c3c2=O)CCC4)cc1 |
| 1.4 | . | i | . | 2.8 | . | . | CC(=O)Nc1cc(-c2cccc(CO)c2)cn2c(-c3ccc(F)cc3)cnc12 |
| 2.5 | -1% | i | 0.67 | -4.1 | -1.8 | -2.7 | COc1ccc(OCC(O)CN2CCOCC2)cc1 (stereo not given) |
| 3.9 | 26% | i | . | -0.1 | . | 2.3 | Cc1ccc(NNC(=O)C(=O)N2CCCCC2)cc1 |
| -1.7 | -7% | i | 0.73 | 6.2 | 3.1 | -1.8 | COc1cccc(C(c2sc3nc(C)nn3c2O)N2CCc3ccccc3C2)c1 (stereo not given) |
| 1.4 | -5% | i | 0.68 | -2.5 | 4.3 | 2.9 | CSc1ccccc1OCc1cc(C(=O)NCCn2nc(C)cc2C)no1 |
| 1.5 | . | i | 0.67 | -0.2 | 1.3 | -3.2 | CC(=O)c1ccc(S(=O)(=O)N2CCN(C(=O)CSc3ccc(F)cc3)CC2)cc1 |
| 0.0 | . | i | 0.66 | 4.3 | 2.9 | -4.3 | CCOC(=O)c1c(C)[nH]c(C(=O)N(C)Cc2cccc(OC)c2OC)c1C |
| 0.8 | . | i | 0.7 | 13 | 1.8 | -0.9 | CCN(CC)CCC(c1cc(OC)c(OC)c(OC)c1)c1c(OC)cc(OC)c2c(-c3ccccc3)cc(=O)oc12 (stereo not given) |
| -0.8 | -5% | i | . | -3.3 | . | . | CCCCN1C(=O)C(CC(=O)NCc2cccc3ccccc23)CC(C(=O)N(C)C)=C1C (stereo not given) |
| -1.0 | ? | i | 0.68 | 16 | -24 | 3.0 | c1ccc(-c2oc3ncnc(NCCN4CCOCC4)c3c2-c2ccccc2)cc1 |
| -2.6 | 9% | i | 0.65 | -6.5 | 2.6 | -1.2 | CC(Oc1ccc(Cl)cc1)/C(N)=N/O (stereo not given) |
| 2.5 | 0% | i | 0.67 | -2.0 | -0.4 | -0.1 | CCn1c(C)cc(C)c(C#N)c1=O |
| 2.6 | 2% | + | . | 6.9 | . | 3.8 | COc1ccc(N(CC(=O)N/N=C/c2ccc(OC)c(OC)c2)S(=O)(=O)c2ccccc2)cc1 |

The listing continues.
| HNF4A DNA FP | Vif TR-FRET | FGF22 binding | Ecoli growth | AF4-AF9 inh | UCH37 DUB inh | RanGTP-Imp inh | canonical_smiles |
| --- | --- | --- | --- | --- | --- | --- | --- |
| 0.0 | -15% | i | . | -2.2 | . | . | Brc1ccc(Br)c2cnccc12 |
| 5.7 | 0% | . | 0.77 | . | 1.4 | . | CCCc1nc2ccccc2c(C(=O)OCc2nnc(-c3cc(OC)c(OC)c(OC)c3)o2)c1CC |
| 3.0 | 4% | i | 0.65 | 4.6 | 3.0 | -1.1 | C=CCN(c1ccccc1)S(=O)(=O)c1cccc(C(=O)NCC(c2ccccc2OC)N2CCCC2)c1 (stereo not given) |
| 1.6 | 1% | i | . | -2.4 | . | . | Cc1ccc2sc(C)cc(=O)c2c1 |
| -5.2 | -7% | . | 0.71 | . | -0.9 | 2.6 | CS(=O)(=O)N1CCC(C(=O)Nc2ccccc2Sc2ccccc2)CC1 |
| 1.3 | -3% | . | 0.73 | . | 1.1 | ? | CCOC(=O)CS(=O)(=O)c1ccccc1 |
| -21 | 18%&-9% | . | 0.71 | . | 3.2 | -51 | COc1ccc(NC(=O)CSc2ccc3c4c(cccc24)C(=O)c2ccccc2-3)cc1 |
| -4.0 | 2% | i | 0.66 | -4.4 | 4.7 | . | O=C(c1ccco1)N1CCN(C(=O)c2cn(-c3ccccc3)nc2-c2ccc(F)cc2)CC1 |

Full records as entered above.
COc1ccc(NC(=O)CSc2ccc3c4c(cccc24)C(=O)c2ccccc2-3)cc1 reads HNF4A DNA FP: -21; Vif TR-FRET: 18%&-9%; FGF22 binding: .; Ecoli growth: 0.71; AF4-AF9 inh: .; UCH37 DUB inh: 3.2; RanGTP-Imp inh: -51
CCOC(=O)CS(=O)(=O)c1ccccc1 reads HNF4A DNA FP: 1.3; Vif TR-FRET: -3%; FGF22 binding: .; Ecoli growth: 0.73; AF4-AF9 inh: .; UCH37 DUB inh: 1.1; RanGTP-Imp inh: ?

The list is partial; rates above refer to the full screens.
